# Compound activity from PubChem.
# Vaccinia mCherry = qHTS for Stage-Specific Inhibitors of Vaccinia Orthopoxvirus: mCherry Reporter Primary qHTS. Vaccinia virus mCherry reporter infection, fluorescence; about a quarter of the inactives have no number. Potency, µM (series often up to 36.5 µM), without a hit: top-dose activity change, negative = inhibition, hits mostly inhibitors. 310,000 compounds, 0.63% hits; active = well fitted inhibition curve with a large enough effect; inconclusive = small, poorly fitted or top-dose-only effect; inactive = no such curve, though single readings can be large or run the other way; tested in A549 cells; further: nearly all actives have a fitted effect of over 35% in size; inactives centre near -10
# VACV Venus inh = qHTS for Stage-Specific Inhibitors of Vaccinia Orthopoxvirus: Venus Reporter Primary qHTS; Potency, µM (doses to about 36.5 µM), for inactives: top-dose activity change, negative = inhibition, most hits filed as inhibitors; Vaccinia virus Venus reporter expression, fluorescence; AID 720580, 2013; 330,000 compounds, 0.46% hits; active means well fitted inhibition curve with a large enough effect; inconclusive means small, poorly fitted or top-dose-only effect; inactive means no such curve, though single readings can be large or run the other way; tested in A549 cells; further: nearly all actives have a fitted effect of over 30% in size; inactives centre near -10
# The depositor's hits bear a star; i = inactive; u = inconclusive; x = not tested or not shown; & = joins results of further samples; [ ] = dose if it differs, or a comment. On the % scale 0 is the no-effect control and ±100 the full control effect; potency means the concentration at half of the fitted maximal effect.
SMILES,Vaccinia mCherry,VACV Venus inh
Cc1cccc(N(C(=O)CNC(=O)c2ccco2)C(C(=O)NC2CCCC2)c2cccnc2)c1C (centres undefined),-13%,4%
O=C(CC(=O)Nc1ccc(Cl)cc1Cl)Nc1ccc(Cl)cc1Cl,-3%,-4%
N#CCCN(Cc1cccnc1)C(=S)Nc1ccccc1Cl,6%,-7%
CC(NC(=S)NC1CCCCC1)C(c1cccs1)N1CCOCC1 (centres undefined),-9%,-16%
COc1ccc(COc2cc(-c3cccc(OC)c3)nc3ccc(NC(=O)c4ccc(Cl)cc4)cc23)cc1,i,-17%
COc1ccccc1CNC(=O)CSC1=Nc2ccccc2N=C(c2ccc(F)cc2)C1,-20%,-20%
CC(Oc1ccc2c3c(c(=O)oc2c1)CCC3)C(=O)N[C@@H](Cc1ccccc1)C(=O)O (some centres undefined),-2%,0%
COc1cc(/C=C/C(=O)O)cc(S(=O)(=O)N2CCc3ccccc3C2)c1OC,i,0%
c1ccc(-c2nc3ccccc3o2)nc1,4%,-4%
Cc1ccc(OCC(=O)NNC(=O)C2CCCO2)c(C)c1 (centres undefined),-5%,-2%
CCCCn1c(N)c(N(CC)C(=O)c2cc(CC)c(C)s2)c(=O)[nH]c1=O,-16%,-16%
CC1=C(C/C=C(\C)CCCC(C)CCCC(C)CCCC(C)C)C(=O)c2ccccc2C1=O (centres undefined),-2%,-5%
CC1=C(NCCc2ccccc2)CCC1=O,x,6%
C/C(=N\Nc1ccc(Cl)c(Cl)c1)c1ccc(-n2ccnc2)cc1,-5%,-22%
Cc1nccn1CC(=O)N/N=C/c1ccccc1O,u,-22%
COc1ccc(-c2nnc(SCC(=O)N3CCCc4ccccc43)o2)cc1OC,x,-5%
Cc1ccc(-n2c(SCC(=O)Nc3cccc(S(N)(=O)=O)c3)nc3ccccc32)cc1,u,u
CCN(C(=O)COC(=O)c1cc(C)n(C2CC2)c1C)c1ccccc1,-24%,-12%
COc1ccc(NC(=O)C2CCCNC2)cc1OCC(C)C (centres undefined),-12%,-4%
COc1ccc(NS(=O)(=O)c2cc3c(cc2C)N(C)CCO3)cc1,-18%,0%
Cc1cc(C)c(NC(=O)C2CCN(C(=O)N3CC(C)Oc4ccc(Cl)cc43)CC2)c(C)c1 (centres undefined),-6%,-5%
CN1CC2CCCC3(C1)C(=O)NC1(CCCCC1)N=C23 (centres undefined),-12%,-8%
CCN(CC)c1ccc2cc(-c3nc(-c4ccc(OC)cc4)cs3)c(=O)oc2c1,-17%,65%[activator]
COc1ccccc1/C=C/C(=O)N1CCOCC1,-6%,-3%
COc1ccc(C2C(Oc3ccccc3)C(=O)N2c2ccc(C)c(C)c2)cc1OC (centres undefined),-16%,-17%
O=C(c1[nH]c(C(F)(F)F)nc1-c1ccccc1)N1CCCCC1,40%[activator],-5%
CS(=O)(=O)N1CCc2cc(C(=O)N3CCN(c4cccc(Cl)c4)CC3)ccc21,-22%,-10%
O=C(O)CSc1nnc(-c2ccccc2)o1,-7%,-4%
CC(C)(C)OC(=O)N[C@@H](Cc1ccccc1)C(=O)N[C@@H](CO)[C@H](O)[C@@H]1C[C@@H]1C(=O)NC1CCCCC1,-10%,-15%
CC(=O)c1ccc(NC(=O)CCc2c(C)nc3c(c(C)nn3-c3ccc(C)cc3)c2C)cc1,-15%,-8%
CCn1cc(SCC(N)=O)c2ccccc21,i,8%
COc1ccccc1-n1cc(-c2ccc(Br)cc2)[nH]c1=S,-24%,-6%
COc1ccc(-n2nc3c(N4CCCC(C(=O)NCc5cccc(F)c5)C4)nnc(C)c3c2C)cc1 (centres undefined),u,-5%
O=C(CSc1nncn1-c1ccccc1)NCc1cccs1,-11%,0%
CC1(C)OC(C(O)(c2ccccc2)c2ccccc2)[C@@H](C(O)(c2ccccc2)c2ccccc2)O1 (some centres undefined),-8%,-3%
COCCCNC(=O)CCn1c(=O)c2ccccc2n(CC(=O)Nc2cc(Cl)ccc2OC)c1=O,-7%,3%
CCOc1cc(CNC(C)(C)C)ccc1OCC(=O)Nc1cccc(C(F)(F)F)c1,-20%,-10%
Cc1noc(C)c1NC(=O)Nc1ccc2c(c1)C(=O)N([C@@H](C)CO)C[C@@H](C)[C@@H](CN(C)Cc1ccc3c(c1)OCO3)O2,-6%,-10%
O=C(c1[nH]c(C(F)(F)F)nc1-c1ccccc1)N1CCC2(CC1)C(=O)NCN2c1ccccc1,3%,8%
CC1N(C(=O)N2CCOCC2)CCN1S(=O)(=O)c1ccc(Cl)cc1 (centres undefined),-9%,-7%
COC(=O)c1ccc(CNC(=O)COC(=O)/C=C/c2ccc(O)c(OC)c2)cc1,-6%,1%
CC(C)N(C(=O)[C@H]1CC(CC(=O)NCC23CC4CC(CC(C4)C2)C3)C(=O)N2CCc3c([nH]c4ccccc34)[C@]12C)C(C)C (some centres undefined),u,u
O=C(NCCc1ccccc1)C1CCCN(S(=O)(=O)c2cnc[nH]2)C1 (centres undefined),21%,-9%
Cc1ccc(NC(=O)N(Cc2nc3ccccc3c(=O)[nH]2)Cc2cccs2)cc1,-17%,-12%
COc1ccc(Cl)cc1NS(=O)(=O)c1cccc(C(=O)N2CC(C)OC(C)C2)c1 (centres undefined),-7%,-2%
CCCCNC(=O)CCNS(=O)(=O)c1ccc(Br)cc1,i,-4%
COC(=O)C(Oc1ccc2c(-c3ccc(OC)cc3)cc(=O)oc2c1)c1ccccc1 (centres undefined),i,-9%
Cc1ccc2c(c1)cc(C(=O)NCc1ccccc1)n2C,u,-3%
COCCc1nn2c(=O)cc(COC(=O)COc3ccccc3C)nc2s1,-11%,-4%
CCOC(=O)CNC(=O)c1sc2ncnc(N3CCc4ccccc4C3)c2c1C,-13%,-22%
CC(C)c1nc2c(c(=O)c3ccccc3n2C)c(=O)n1-c1ccc(F)cc1,-6%,-11%
CCOc1ccc(-c2nc3ccccc3c(=O)o2)cc1,-11%&-1%,-11%&8%
CCOC(=O)c1cccc(NC(=O)N2Cc3ccccc3Oc3ncccc32)c1,-9%,-4%
C=CCn1c(=O)c2ccccc2n2c(SCc3nc4ccccc4s3)nnc12,x,0%
C=C1C2C[C@H](O)C(C)(C)[C@@]2(O)[C@H](O)C[C@]23C[C@@](C)(O)[C@H](CC[C@H]12)[C@H]3O (some centres undefined),-4%,1%
C#CCOCCOCCOCCNc1nc(N2CCN(C(=O)[C@H](C(C)C)n3cc(CCO)nn3)CC2)nc(N2CCN(C(=O)[C@H](C(C)C)n3cc(CCO)nn3)CC2)n1,-28%,-5%
CCCCc1c(-c2ccc(OC)c(OC)c2)ncn1CCc1ccccc1OC,u,-17%
Cc1ccc(NC(=O)OCCN2CCN(S(=O)(=O)c3ccc(C)cc3)CCC2=O)cc1,-6%,-20%
Cc1ccccc1C(=O)Nc1nc2nc(C)c(C)c(=O)n2[nH]1,-14%,-11%
CC1CCCN(c2c3c(nc4ccccc24)CCCC3)C1 (centres undefined),-11%,-15%
# (further entries)
SMILES,Vaccinia mCherry,VACV Venus inh
C[C@H](CCC(=O)NCCS(=O)(=O)O)C1CC[C@H]2C3CC[C@@H]4C[C@H](O)CC[C@]4(C)C3C[C@H](O)[C@]12C (some centres undefined),-10%,-13%
CC1(C(=O)OCC(=O)NNC(=O)COc2ccc(Cl)cc2)CC1(Cl)Cl (centres undefined),i,-10%
CC1=C(c2ccc(Cl)cc2)S(=O)(=O)N=C1N1CCN(c2cccc(C)c2)C(C)C1 (centres undefined),-11%,-14%
Cc1cc(C(=O)COC(=O)c2ccc[nH]c2=O)c(C)n1-c1ccccc1,i,-6%
CCOC(=O)c1c(C)nn(-c2ncccc2NC(=O)CCC(=O)O)c1C,6%,-12%
Cc1ccc(N2CC(C(=O)Nc3ccc(S(=O)(=O)N4CCOCC4)cc3)CC2=O)cc1 (centres undefined),-15%,-10%
CCCCCn1c(CN2CCN(c3cccc(Cl)c3)CC2)nc2c1c(=O)n(C)c(=O)n2C,-6%,-24%
Cc1[nH]nc(-c2cccnc2)c1N=NN(C)C,u,u
C=CCN1C(=O)c2ccc(C(=O)N3CCC(C(=O)OCC)CC3)cc2C1=O,-12%,-8%
C#CCN1c2ccccc2Sc2cccnc21,-7%,3%
CCCCNC(=O)C1(C)CCN1C(=O)c1ccncc1 (centres undefined),i,-2%
CCOc1ccccc1N1CC(C(=O)NNC(=O)c2cc(OC)c(OC)c(OC)c2)CC1=O (centres undefined),-13%,-2%
CCOc1ccccc1N(CC(=O)NCC1CCCO1)C(=O)CNS(=O)(=O)c1ccccc1 (centres undefined),-8%,-8%
COC(=O)C1=C(O)/C(=C\c2ccc(CNS(=O)(=O)c3ccccc3)o2)N=C1C,-1%,2%
COc1cc(C(=O)N2CCC(c3ccncc3)CC2)cc(OC)c1OC,-13%,-5%
CN(C)C(=O)c1ccc2c(c1[N+](=O)[O-])C(=O)c1ccccc1C2=O,16%,147%[activator]
COc1ccc(OCc2cc(C(=O)NCC3CCCCO3)no2)c(Cl)c1 (centres undefined),i[7.34 µM],-10%[7.34 µM]
C[C@@H]1CN([C@@H](C)CO)C(=O)c2cc(C#Cc3cccc(F)c3)cnc2O[C@H]1CN(C)C(=O)C1CCCCC1,u,-25%
CCC(=O)OCc1cc(=O)n2nc(C3CC3)sc2n1,-14%,-9%
O=C(O)c1ccc(OCC(F)(F)F)nc1,i,-18%
Nc1ccc2c3c(ccc([N+](=O)[O-])c13)CC2,-20%,-12%
C(=C\n1nnc2ccccc21)/c1ccccn1,-13%,-3%
O=C(CCSCCc1ccccn1)Nc1ccccc1C(F)(F)F,-6%,-6%
COc1ccc(-c2cc(-c3ccccc3)n3ncnc3n2)cc1,i,-19%
O=C(CNC(=O)c1ccc(Br)cc1)OC1CCOC1=O (centres undefined),i,-12%
COc1cc(-c2nnc(COC(=O)CSCC(=O)Nc3cc(C)on3)o2)cc(OC)c1OC,-13%,-6%
N/C(=N\OC(=O)Oc1ccccc1)c1cccc([N+](=O)[O-])c1,i,-10%
CCOc1ccc(Br)cc1S(=O)(=O)Nc1ccc(N2CCOCC2)cc1,-5%,-19%
C/C(=N/Oc1nc(C)cc(C)n1)c1ccccc1,-20%,-23%
O=C(CNC(=O)c1cccs1)Nc1ccncc1,-15%,-5%
Cc1nc2sc(C(c3ccco3)N3CCN(c4ccccc4)CC3)c(O)n2n1 (centres undefined),-20%,-20%
O=C(NCCc1ccc(Cl)cc1)c1ccc2c(c1)N(Cc1ccccc1)CCS2,-6%,-2%
OCC1(Cc2ccc(F)cc2)CCCN(Cc2ccc(F)cc2Cl)C1 (centres undefined),u,-16%
O=C(Nc1nccs1)c1ccccc1N=Cc1ccccc1,x,-18%
CN(C(=O)c1ccc(NC(=O)Cc2cccc(NC(=O)C3CCN(C(=O)C4CCCCC4)CC3)c2)cc1)C1CC1,-18%,-1%
O=C(Nc1ccc2nc(SCC(=O)N3CCCC3)sc2c1)c1ccc(F)cc1,-7%,-12%
Cc1cc(/C=N/O)c(C)n1-c1ccccc1,-15%,-18%
COc1cccc(CC2CC(=O)N(CCc3ccc4c(c3)OCO4)C2=O)c1 (centres undefined),x,-17%
COc1ccc2c(c1)C(=NO)c1cc(OC)ccc1-2,u,-20%
CC(=O)c1sc(Nc2nc(C)cc(C)n2)nc1C,-23%,-22%
CCOC(=O)N(C)c1c(CC)nc2c(OCc3ccc(OC(F)F)cc3)cccn12,i,-7%
CCOc1cccc(NC(=O)c2ccc(F)c(S(=O)(=O)N(CC)c3cccc(C)c3)c2)c1,-11%,-18%
COc1ccc(N(C(=O)c2ccco2)C(C(=O)NC2CCCC2)c2ccc(N3CCOCC3)cc2)c(OC)c1 (centres undefined),-11%,0%
Cc1ccc2[nH]c(-c3ccccc3)cc(=O)c2c1,u,u
CC(C)C[C@H]1CN(CCCC[C@H]2CNC(=O)C(=O)N2CCc2ccc(O)cc2)C(=O)C(=O)N1CCc1ccccc1,-10%,1%
